KCNQ2 inh – KCNQ2 channel blockers in CHO-K1 cells – cell-based, FluxOR thallium flux, B-score, primary screen (AID 2156); O88943; 20 min; active compounds read low; only compounds with negative scores are shown here; some inactives read as strong as hits; B-score at 10 µM; 310,000 compounds, 1.1% hits;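 active means fluorescence ratio B-score at most minus 3 library SDs, with starting brightness B-score within 2 library SDs, cut at about -5.5 in these data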
Target sequence (O88943 whole entry, looked up): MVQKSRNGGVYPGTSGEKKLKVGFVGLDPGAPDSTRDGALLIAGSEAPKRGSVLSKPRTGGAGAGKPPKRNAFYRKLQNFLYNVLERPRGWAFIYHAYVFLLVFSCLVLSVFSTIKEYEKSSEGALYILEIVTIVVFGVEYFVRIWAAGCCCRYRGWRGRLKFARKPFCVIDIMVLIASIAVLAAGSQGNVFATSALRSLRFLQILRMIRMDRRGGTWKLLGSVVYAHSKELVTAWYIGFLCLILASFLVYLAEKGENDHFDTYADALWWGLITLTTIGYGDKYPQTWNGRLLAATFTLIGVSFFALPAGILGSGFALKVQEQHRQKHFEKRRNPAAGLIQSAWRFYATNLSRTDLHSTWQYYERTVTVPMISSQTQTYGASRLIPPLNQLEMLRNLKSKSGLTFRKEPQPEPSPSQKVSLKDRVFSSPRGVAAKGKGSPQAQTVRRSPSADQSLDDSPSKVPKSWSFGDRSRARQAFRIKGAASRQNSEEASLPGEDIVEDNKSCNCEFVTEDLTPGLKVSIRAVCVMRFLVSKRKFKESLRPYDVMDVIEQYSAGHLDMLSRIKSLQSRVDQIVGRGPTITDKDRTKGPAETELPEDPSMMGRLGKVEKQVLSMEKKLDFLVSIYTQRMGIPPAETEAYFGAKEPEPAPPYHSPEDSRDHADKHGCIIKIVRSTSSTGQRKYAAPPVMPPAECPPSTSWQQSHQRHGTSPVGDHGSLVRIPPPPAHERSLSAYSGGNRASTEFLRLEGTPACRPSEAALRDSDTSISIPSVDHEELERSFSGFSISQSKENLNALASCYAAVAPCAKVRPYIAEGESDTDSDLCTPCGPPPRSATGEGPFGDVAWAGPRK
KCNQ2 inh baseline – recorded beside KCNQ2 inh, whose call it bears; B-score; measured here: initial fluorescence intensity artifact check;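 brightness before thallium and not channel activity; 0 = typical well and far values either way flag optical interference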
Starred values were filed as active, the others as inactive; i = inactive. Some of the compounds tested. The share of hits here may be higher or lower than overall.

SMILES | KCNQ2 inh | KCNQ2 inh baseline
CCOC(=O)C(C)(C)N(Cc1ccc(C)cc1)S(=O)(=O)c1ccc(Cl)c([N+](=O)[O-])c1 | i | -1.39
CN1CCN(c2ccc(NC(=O)COc3ccc(Cl)cc3Cl)cc2)CC1 | i | -0.84
O=C(CNC(=O)c1cccc(F)c1)N/N=C/c1cc(Br)ccc1OC(=O)/C=C/c1ccco1 | i | -0.86
O=C(CSc1nc2ccc(Nc3nc(N4CCOCC4)nc(N4CCOCC4)n3)cc2s1)Nc1ccccc1Cl | i | -0.66
O=C(Nc1ccccc1NC(=O)c1ccccc1F)c1ccccc1F | i | 0.85
Cc1ccc(N2CCN(C(=S)c3ccc(-c4cccc([N+](=O)[O-])c4)o3)CC2)cc1 | i | -1.8
Cc1cccc2cc3c(N)c(C(=O)N4CCc5ccccc54)sc3nc12 | i | 2.62
COc1ccccc1CC(=O)N(Cc1ccccc1)c1cccc(C)c1 | i | 2.1
COc1cnn(-c2ccc([N+](=O)[O-])cc2)c(=O)c1Cl | i | 0.03
CN(C)c1ccc(/C=C/c2nc3ccccc3c(=O)[nH]2)cc1 | i | 3.85
CCOC(=O)N1CCN(C(=O)c2cccc(N3C(=O)NC4CC3(C)Oc3ccc(Cl)cc34)c2)CC1 (stereo not given) | i | 0.5
O=C(Nc1ccc(-c2nc3ccccc3c(=O)o2)cc1)c1ccco1 | i | 2.42

Next section; it opens with the 2 that closed the last part.
SMILES | KCNQ2 inh | KCNQ2 inh baseline
CCOC(=O)N1CCN(C(=O)c2cccc(N3C(=O)NC4CC3(C)Oc3ccc(Cl)cc34)c2)CC1 (stereo not given) | i | 0.5
O=C(Nc1ccc(-c2nc3ccccc3c(=O)o2)cc1)c1ccco1 | i | 2.42
CCN(CC)C(=O)CSc1nnc(CNc2ccc(F)cc2)o1 | i | 4.45
COc1cc(/C=C(/C#N)c2ccc(C)cc2)ccc1Oc1ccc([N+](=O)[O-])cn1 | i | -0.8
C/C(=N\O)C(C)(C)Nc1cccc(Br)c1 | i | 0.2
O=S1(=O)NC(=NCc2ccco2)c2ccccc21 | i | -0.66
Cc1ccc(OC(C)C(=O)N2CC(=O)Nc3ccccc32)cc1 (stereo not given) | i | 0.71
COc1ccc(-n2nc(C(=O)NCc3cc(OC)ccc3OC)c3c4ccccc4n(C)c3c2=O)cc1 | i | 0.21
O=C(CN(C(=O)c1csnn1)c1cccc(C(F)(F)F)c1)NCc1ccc(F)cc1 | i | -1.56
CC(C)(C)c1ccc(Oc2ncccc2NC(=O)c2cccs2)cc1 | i | -0.22
O=C(Cn1nnc2ccccc21)OCC(=O)c1ccc(Cl)cc1 | i | 0.39
O=S(=O)(CCn1cccc1)CCn1cccc1 | i | -1.96
O=C1N2CN(C(c3ccccc3)c3ccccc3)CN=C2SC1(CO)CO | i | 0.01
CCN(CC)CCCNC(=O)c1ccc2c(=O)n(Cc3ccc4c(c3)OCO4)c(=S)[nH]c2c1 | i | 1.8
Cc1ccc(Cc2nc(-c3cccnc3)no2)cc1 | i | -0.07
COc1cc(-c2ccc3oc(-c4ccsc4)c(C#CC4(O)CCCCC4)c3c2)cc(OC)c1OC | i | -1.15
O=C(Cn1ncc2c3ccccc3n(Cc3ccccc3)c2c1=O)NCCCN1CCCC1 | i | 0.96
O=C(NCc1ccccc1)c1ccc(CN2CCC(Cc3ccccc3)CC2)cc1 | i | -0.74
CCN1C(=O)CS/C1=N\c1nccs1 | i | 1.95
CCCCNC(=O)[C@@H]1CSC2c3ccc(OC)c(OC)c3C(=O)N21 (stereo not given in full) | i | -0.01
O=C(Nc1ccon1)Nc1cc(Cl)ccc1Cl | i | -1.21
O=C(O)CCS(=O)(=O)c1nc(-c2cccs2)cc(C(F)(F)F)n1 | i | 0.46
CCOC(=O)CNC(=S)N(CCCN1CCCC1)Cc1cccs1 | i | 1.64
O=[N+]([O-])c1ccc(N/N=C/c2sc(N3CCOCC3)nc2-c2ccccc2)c(S(=O)(=O)Nc2ccc(Cl)cc2)c1 | i | 2.71
CCNC(=S)NNC(=O)c1cc(-c2cccnc2)nc2ccccc12 | i | -2.25
COc1ccc(N2C(=O)/C(=C\c3ccco3)N=C2SCC(=O)NC(C)C)cc1Cl | i | -2.89
Cc1cc(N2CCOCC2)n2nc(C(F)(F)F)c(-c3ccccc3)c2n1 | i | -0.89
CC(NC(=O)c1cccc(S(=O)(=O)N(C)C)c1)C1CC2CCC1C2 (stereo not given) | i | -3.07
C/C(CC(=O)Nc1c(Cl)cccc1C(F)(F)F)=N\NC(=O)c1cnccn1 | i | -0.5
FC(F)(F)c1nnc2c(Sc3ccccc3)nc3ccc(Cl)cc3n12 | i | 0.53
C(#Cc1ccc(C#CCN2CCCC2)cc1)CN1CCCC1 | i | 0.64
Cc1cccc(N2CCN(C(=O)c3c(-c4ccccc4)noc3C)CC2)c1C | i | 0.29
Cc1sc(Cc2nc(O)cs2)nc1-c1ccccc1 | i | -1.15
COC(=O)C1=C(C)NC(=S)NC1/C=C/c1ccccc1 (stereo not given) | i | 1.65
CC(C)N(Cc1cnn(C)c1)Cc1nc(COc2ccccc2)no1 | i | -0.82
COc1ccccc1NC(=O)NNC(=O)c1ccc(-c2ccccc2)cc1 | i | 1.13
O=C(CSc1nnnn1-c1cccc(C(=O)O)c1)NC(c1ccccc1)c1ccccc1 | i | 0.34
CCCCCC(=O)Nc1cc(S(=O)(=O)N2CCOCC2)ccc1Oc1ccc(OCC)cc1 | i | -0.69
Cc1ccc(CSc2nc3c(c(SCC(=O)O)n2)CCCC3)cc1 | i | 0.95
N#Cc1nc(N2CCCC2)nc(N2CCCC2)n1 | i | 0.51
Cc1cc(C)n(-c2ccc3cccc(NS(C)(=O)=O)c3n2)n1 | i | 1.51
CCc1ccc(/C=N/NC(=O)c2ccc(OC3CCCC3)cc2)s1 | i | -0.76
COc1ccc(NC(=O)c2cc(-c3cccs3)on2)c(OC)c1 | i | -2.78
CC(C)C[C@H](NC(=O)C1CC(=O)N(c2ccc(F)cc2)C1)C(=O)N1CCCCC1 (stereo not given in full) | i | 0.39
O=C(Cc1csc(-c2ccccc2)n1)NCc1ccccc1F | i | 2.14
Cn1c(=O)c2c(SCC(=O)NCC3CCCO3)nc(CC(C)(C)C)nc2n(C)c1=O (stereo not given) | i | -0.37
COC(=O)c1ccc(C(=O)NN)cc1 | i | -0.18
COC(=O)c1c(-c2ccc(C)cc2)csc1NC(=O)c1c(-c2ccccc2)noc1C | i | -0.26
CCCn1c(=O)c2c(nc3n2CCCN3CCc2ccc(OC)c(OC)c2)n(C)c1=O | i | -0.1
CCOC(=O)NC(NCCc1ccccc1)(C(F)(F)F)C(F)(F)F | i | -0.17

Seven successive compounds already listed, for reference:
SMILES | KCNQ2 inh | KCNQ2 inh baseline
O=C(Cn1nnc2ccccc21)OCC(=O)c1ccc(Cl)cc1 | i | 0.39
O=S(=O)(CCn1cccc1)CCn1cccc1 | i | -1.96
O=C1N2CN(C(c3ccccc3)c3ccccc3)CN=C2SC1(CO)CO | i | 0.01
CCN(CC)CCCNC(=O)c1ccc2c(=O)n(Cc3ccc4c(c3)OCO4)c(=S)[nH]c2c1 | i | 1.8
Cc1ccc(Cc2nc(-c3cccnc3)no2)cc1 | i | -0.07
COc1cc(-c2ccc3oc(-c4ccsc4)c(C#CC4(O)CCCCC4)c3c2)cc(OC)c1OC | i | -1.15
O=C(Cn1ncc2c3ccccc3n(Cc3ccccc3)c2c1=O)NCCCN1CCCC1 | i | 0.96

Remaining list, next part.
SMILES | KCNQ2 inh | KCNQ2 inh baseline
CCSc1nc2sc3c(c2c(=O)[nH]1)CC(C)(C)OC3 | i | 0.83
COc1ccc(OC)c(NC(=O)CC2SC(=Nc3ccc(F)cc3)N(CCC3=CCCCC3)C2=O)c1 (stereo not given) | i | -0.25
Cc1c(NC(=S)N/C(=N/S(=O)(=O)c2ccc(Cl)cc2)c2ccccc2)c(=O)n(-c2ccccc2)n1C | i | 1.04
Cc1cccc(Cc2c(C)nc3c(C(=O)NCc4ccco4)cnn3c2C)c1 | i | 0.29
Fc1ccc(-c2nnc(-c3ccc(Cl)cc3)o2)cc1 | i | 0.16
CCCCn1c(N)c(N(CC(C)C)C(=O)CCS(=O)(=O)c2ccc(C)cc2)c(=O)[nH]c1=O | i | -1.65
CCN(CC(=O)Nc1ccccc1C(F)(F)F)C(=O)Cc1sc(C)nc1-c1ccc(F)cc1 | i | -0.89
CN1CCSc2ccc(C(=O)NCc3ccccc3F)cc21 | i | 1.31
CCc1cc(=O)[nH]c(SCC(=O)NCc2ccc3c(c2)OCO3)n1 | i | 0.14
COc1ccc(N2C(C(C)=O)=NN(c3ccccc3)C2c2cccs2)cc1 (stereo not given) | -7.19* | 1.91*
CC(CC(=O)O)CC(=O)Nc1ccc(Br)cc1 (stereo not given) | i | -0.74
C(=C\c1ccc(/C=C/c2ccccc2)nn1)/c1ccccc1 | i | 0.12
CN1CCN(C(=O)NC2CCCN2S(=O)(=O)c2ccc(Cl)cc2)CC1 (stereo not given) | i | -1.49
O=c1c2ccccc2nc2sc3ccccc3n12 | i | -1.83
COc1ccc(O)c(-c2[nH]ncc2C(=O)c2ccccc2C)c1 | i | -1.77
CC(CN(C)Cc1ccccc1)OC(=O)c1cccs1 (stereo not given) | i | -1.11
O=C(CNC(=O)c1cccs1)NCC(=O)OCc1c(Cl)cccc1Cl | i | -1.07
CCOC(=O)Cc1csc(NC(=O)c2ccc3ccccc3n2)n1 | i | 0.62
N=c1c(S(=O)(=O)c2ccc(Cl)cc2)cc2c(=O)n3ccccc3nc2n1Cc1ccco1 | i | 1.17
CC(=O)N(c1ccccc1)C1CC(C)N(C(=O)c2ccccc2)c2ccccc21 (stereo not given) | i | -0.05
FC(F)Sc1ccc(-n2cc(-c3ccc(Cl)cc3)[n+]3c2CCC3)cc1 | i | 0.81
CC1(C)C(=O)Nc2ccccc2N1C(=O)COc1cccnc1[N+](=O)[O-] | i | 0.7
CC(C)(C)C(=O)Nc1sc2c(c1C#N)CCCCC2 | i | 0.3
CC(=O)NCCCC(=O)NNC1CC(=O)N(c2cccc(Cl)c2)C1=O (stereo not given) | i | 0.76
O=C(Nc1ccc2c(c1)OCCO2)N1CCN(Cc2ccccc2)CC1 | i | -0.64
COC(=O)C1(C)NC(c2ccccc2C)C2C(=O)N(c3ccc(F)cc3)C(=O)C21 (stereo not given) | i | -0.32
CC(C)CC(=O)n1sc(NC(=O)c2ccccc2)nc1=O | i | 1.99
CC(CO)(CO)NC(=O)c1ccc(=O)[nH]n1 | i | 0.74
COC(=O)C1=NNC2C(=O)N(C3CCCCC3)C(=O)C12 (stereo not given) | i | 0.66
O=C(Nc1ccc(-n2ccnc2P(=O)(O)c2ccccc2)cc1)c1ccccc1Cl | i | 2.04
CSc1ccccc1NC(=O)CN(C1CCCCC1)S(C)(=O)=O | i | 2.24
O=C(NCc1ccc(Cl)cc1)c1csc(-c2cccnc2)n1 | i | 2.11
Cc1nc2scc(C)n2c(=O)c1S(=O)(=O)N1CCN(c2ccccc2F)CC1 | i | -1.15
COc1cc2nc(C3CC3)n(NC(=O)c3ccc(Cl)cc3)c(=O)c2cc1OC | i | -1.56
CSc1ccc(-c2nc(CN3CCCCC3c3cccnc3)c(C)o2)cc1 (stereo not given) | i | -0.72
Cc1nn(C2CCCCC2)c(N)c1-c1ccccc1 | i | 0.17
O=C(Nc1nc(-c2ccccn2)cs1)c1ccc([N+](=O)[O-])o1 | i | 2.95
CC(C)/C=C/CN1CCCC(N2CCN(c3cccc(Cl)c3)CC2)C1 (stereo not given) | i | -0.07
CC(C)c1ccc(-c2cc(C(=O)N3CCOCC3)c3cc(Br)ccc3n2)cc1 | -6* | -2.37*
O=C(CN1C(=O)NC2(CCCC2)C1=O)Nc1nc2ccccc2[nH]1 | i | -0.65
COc1ccccc1CN1CCN(Cc2ccco2)CC1 | i | 0.76
O=C(Nc1ccc(F)cc1)c1ccccc1CC[N+](=O)[O-] | i | -0.07
CCOC(=O)c1[nH]c(C)c(C(=O)N2CCc3c([nH]c4ccccc34)C2c2ccccn2)c1C (stereo not given) | i | -0.85
COC(=O)c1c(C)nn(-c2ccc(OC(F)(F)F)cc2)c1-c1snnc1C | i | -0.67
O=C(Cn1nnc(-c2ccccc2-n2cnnn2)n1)c1ccccc1 | i | 1.46
COc1ccc(NC(=O)CC(C)n2ccnc2)cc1 (stereo not given) | i | 2.04
Cc1c(OCC(=O)NCc2ccncc2)ccc2c3c(c(=O)oc12)CCCC3 | i | 0.82
CCOC(=O)CN(C(=O)CNC(=O)c1cccs1)C(C(=O)NC1CCCCC1)c1cccs1 (stereo not given) | i | -1.3
COc1ccc(-n2c(SC(C)C(=O)Nc3ncc(Cl)cc3Cl)nc3ccccc32)cc1 (stereo not given) | i | 1.44
O=C(O)c1ccc(NS(=O)(=O)c2cccc(C(=O)Nc3cccc(C(=O)O)c3)c2)cc1 | i | 1.57
CCc1ccc(C(CNC(=O)c2ccc3c(=O)n(-c4ccccc4F)c(=S)[nH]c3c2)N(C)C)cc1 (stereo not given) | i | 2.32
O=C(CSCc1cccc(F)c1)N1CCN(c2ccccc2)CC1 | i | -0.82
CCCCNC(=O)c1onc(CSc2ccc(Cl)cc2)c1C(=O)O | i | 2.2
Cc1ccc(C(=O)NNC(=O)c2cc(OCC(F)(F)F)ccc2OCC(F)(F)F)cc1 | i | -0.01
C/C(=N\Nc1nc(N)cc(Cl)n1)c1ccc(Cl)c(Cl)c1 | i | -0.29
C[C@@H](CO)NC(=O)c1ccc2c3n(nc2c1)-c1ccc(Cl)cc1CO3 | i | -0.08
CCN1C(=O)C2(C(C(=O)c3ccc(C)o3)=C(O)C(=O)N2CCCN2CCOCC2)c2ccccc21 (stereo not given) | i | -0.1

Rewritten as a markdown table: part of the list above
| Structure | KCNQ2 inh | KCNQ2 inh baseline |
| --- | --- | --- |
| O=C(CSCc1cccc(F)c1)N1CCN(c2ccccc2)CC1 | i | -0.82 |
| CCCCNC(=O)c1onc(CSc2ccc(Cl)cc2)c1C(=O)O | i | 2.2 |

Source: PubChem BioAssay
